Arbovirus anti: antivirals against arbovirus infection; AID 1251; 0.37% of 200,000 active; inhibition, % at 10 µM; arbovirus infection cell-based antiviral screen;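 active means inhibition from about 30%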;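 further: bluetongue infection of BSR cells; cell survival read as ATP light after 72 h; 0% = infected wells without compound and 100% = uninfected wells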
YopH PTP inh: YopH (Yersinia) phosphatase inhibition; fluorescence Ex485/Em525; inhibition, %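 (about 10 µM by stock and volumes)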; 0.16% of 140,000 active;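 active means inhibition of 50% or more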;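 further: controls were vehicle for no effect and minimum signal wells for full effect; inactives centre near -20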
Mtb bLac sens: beta-lactam sensitization of Mtb H37Rv | M. tuberculosis H37Rv growth with meropenem, percent inhibition; hits of this screen are not shown here | inhibition, % at 25 µM | 0.27% of 330,000 active | AID 434955;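 active means about 74% or more and at least 40 points above the plate without the antibiotic, then above 30% in a dose series; inconclusive means first-round hits that could not be retested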;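 further: growth measured after seven days incubation then overnight dye step; 0% = bacteria only wells and 100% = bacteria with antibiotic; twin plates without the antibiotic show which effects depend on it; some results filed as inactive read as strong as hits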
RecA intein inh: inhibitors of M. tuberculosis RecA intein splicing; 0.75% of 290,000 active; P9WHJ3; inhibition, %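 (about 9 µM by stock and volumes)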; cell-free RecA intein splicing, fluorescence; in the data active means inhibition above about 30%; inconclusive means no clear call, values can overlap the other calls;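 further: 0% = vehicle wells and 100% = reference inhibitor control wells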
Target sequence (P9WHJ3 whole entry, looked up): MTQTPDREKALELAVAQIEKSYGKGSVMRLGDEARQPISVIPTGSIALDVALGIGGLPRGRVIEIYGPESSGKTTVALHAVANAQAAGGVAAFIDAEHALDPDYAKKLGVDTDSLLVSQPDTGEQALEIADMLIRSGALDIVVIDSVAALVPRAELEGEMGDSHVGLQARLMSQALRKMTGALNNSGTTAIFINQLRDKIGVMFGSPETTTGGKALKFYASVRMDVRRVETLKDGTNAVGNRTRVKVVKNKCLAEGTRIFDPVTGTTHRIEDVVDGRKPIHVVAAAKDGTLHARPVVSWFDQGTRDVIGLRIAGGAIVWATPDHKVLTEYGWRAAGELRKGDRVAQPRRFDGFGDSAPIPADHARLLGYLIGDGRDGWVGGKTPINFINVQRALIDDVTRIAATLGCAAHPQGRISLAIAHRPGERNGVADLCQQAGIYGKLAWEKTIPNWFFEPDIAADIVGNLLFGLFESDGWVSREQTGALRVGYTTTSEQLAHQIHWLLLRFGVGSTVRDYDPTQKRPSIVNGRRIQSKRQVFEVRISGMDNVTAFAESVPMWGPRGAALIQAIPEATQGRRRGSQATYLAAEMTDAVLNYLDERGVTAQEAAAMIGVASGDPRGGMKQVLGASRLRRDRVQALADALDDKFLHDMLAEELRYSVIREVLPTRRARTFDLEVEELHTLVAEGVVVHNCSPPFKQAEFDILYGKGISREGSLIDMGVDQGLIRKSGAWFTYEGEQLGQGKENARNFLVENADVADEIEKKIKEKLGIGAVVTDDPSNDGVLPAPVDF
Mtb growth: M. tuberculosis H37Rv growth inhibitors, H37Rv strain (AID 1626); M. tuberculosis H37Rv growth inhibition; higher % means a stronger effect; inhibition, % at 10 µM; hits with a dose series show IC50 in µM; 0.95% of 220,000 active;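 active means confirmed in a dose series; inconclusive means inhibition above 80% but not taken into the dose series; inactive means below 80% or under 30% at every dose of the series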;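 further: bacteria incubated seven days before Alamar blue readout; 0% = bacteria only wells and 100% = bacteria with antibiotic wells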
Arbovirus anti repeat: recorded beside Arbovirus anti, whose call it bears; inhibition, %; measured here: 10K subset replicate screen; many hits read low in the repeat;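 first of two repeat runs on a subset; 0% = infected and 100% = uninfected wells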
* hit, by the source's call; ? = inconclusive; / = no result given; & = joins results of further samples. Not all compounds are listed; count on the stated rates, not on these rows.

SMILES	Arbovirus anti	YopH PTP inh	Mtb bLac sens	RecA intein inh	Mtb growth	others
C[C@H]1CCC[C@@]2(O[C@H](CCO)C[C@@H](O)[C@@H]2O)O1	/	/	-3	-0.1	0%
O=C(c1ccc(=O)[nH]c1)N1CCN(S(=O)(=O)c2ccccc2)CC1	/	/	1	-0.5	/
CCn1c(SC(C)C)nnc1-c1cc(-c2ccccc2)sc1N	-5	-17	22	-1.2	-4%
Cc1ccc(C(=O)/C=C/Nc2ccc([N+](=O)[O-])cc2Br)cc1	-16	-17	-8	-2.3	3%
CN(C)S(=O)(=O)c1cccc(C(=O)Nc2cccnc2)c1	0	-31	-9	1.1	-3%
Cc1noc(C)c1S(=O)(=O)N(CC(=O)O)c1ccc2c(c1)OCO2	-3	-20	-2	1.1	-8%
Cc1ccc(C)c(S(=O)(=O)Nc2cc(C)on2)c1	/	/	-6	-2.9	/
O=C1CN(S(=O)(=O)c2ccc(Cl)cc2C(F)(F)F)CCN1	-8	/	-8	0.4	-6%
CSc1nc2[nH]c3c(c2c2nnnn12)CCCC3	-15	0	13	-1.4	/
COC(=O)[C@@H]1CC[C@H](C)[C@@H](c2ccc(C)cc2)N1C(=O)c1ccc(/C=N/O[C@@H](C)CN2CCCCc3nc(C)c(C)cc32)cc1	-38	-23	64	24	/
O=C1CSCN1c1ccc(Cl)cc1	-2	/	-7	1.4	0%
COc1ccc(CCNC(=O)c2ccc(COc3ccccc3OC)o2)cc1	/	/	1	0.7	/
O=C(c1ccc(-c2ccccc2)cc1)N1CCN(c2ccccc2)CC1	/	/	-1	1.1	/
Cc1cc(C(=O)CSc2n[nH]c(N)n2)c(C)n1C1CC1	7	16	-22	1.9	-9%
COc1ccc2nc(N/C(N)=N/C(=S)Nc3ccc(C)c(C)c3)nc(C)c2c1	12	-14	73	5.2	?
CC(c1ccccc1)n1c(-c2ccc(Cl)cc2)n[nH]c1=S (stereo not drawn)	/	/	-5	5.2	/
CC(C)c1nc(SCC(=O)c2c[nH]c3ccccc23)n[nH]1	/	/	-3	-2.1	-6%
CC(COc1ccccc1)N1CCC(CO)(Cc2ccccc2)CC1 (stereo not drawn)	-15	/	2	0.4	1%
CN(C)S(=O)(=O)N1CCc2ccccc2C1	-2	-21	-5	/	2%
O=C(CCSCCC(=O)NCCN1CCOCC1)NCCN1CCOCC1	1	-112	-4	/	-9%
CC(=O)C1=NN(c2ccccc2)C(c2ccc3c(c2)OCO3)N1c1ccccc1 (stereo not drawn)	-5	-15	-2	-85	2%
CCc1ccc(S(=O)(=O)c2nnn3c2nc(N2CCOCC2)c2ccccc23)cc1	/	/	4	4.4	/
O=C(CC1C(=O)NCCN1Cc1ccoc1)NCCCn1ncc2ccccc21 (stereo not drawn)	4	/	0	4.5	6%
COc1ccc(/C=N/n2cncn2)cc1CSc1ccccn1	-5	-45	15	-2.0	4%
CCOC(=O)CNC(=O)CSc1ncnc2c1nnn2-c1ccc(F)cc1	8	-48	99	2.4	>100µM*
COc1ccc(NCc2nnc(SCC(=O)N3CCCc4ccccc43)n2C)cc1	-6	-29	-9	0.5	90%
COc1ccccc1NC(=O)CCSc1ccc(C)cc1	-1	/	5	2.8	1%
CCOC(=O)c1c(NC(=S)N2CCCCC2)sc2c1CCN(C(=O)OCC)C2	/	/	80	33*	64%
NC(=O)COC(=O)c1c2c(nc3ccccc13)CCCC2	3	/	-1	-1.8	3%
COC(=O)[C@@H]1C[C@H]2CC[C@H](O)C[C@H]2N1Cc1ccccc1OS(=O)(=O)c1ccc(C)cc1	/	/	-1	1.6	-5%
CCN(CC)CCNC(=O)CN1C(=O)COc2ccc(S(=O)(=O)N3CCOCC3)cc21	/	/	-9	0.2	/
COc1ccc(C(=O)NC(=S)Nc2nc(C)c(C(=O)N(C)C)s2)cc1	-3	-29	-8	0.1	1%
Cc1ccc(N2C(=O)C3CCCN3C2=S)cc1Cl (stereo not drawn)	/	/	1	-0.7	/
CCOC(=O)c1[nH]c2ccc(Cl)cc2c1NC(=O)c1nonc1C	-2	15	-5	-4.1	-1%
Cc1ccc2[nH]c3c(c2c1)CN(C(=O)CN1CCCCC1)CC3	/	/	2	-13	-5%
Nc1c(C(=O)NCc2ccccc2)c2nc3ccccc3nc2n1-c1ccc2c(c1)OCO2	-31	-36	-7	-7.8	-3%
COc1ccc(CCNC(=O)[C@H](C)N2C(=O)N3CCc4c([nH]c5ccccc45)[C@@]3(C)C2=O)cc1	/	/	42	-1.0	/
COc1cccc(-c2nnc(N(C)C(=O)C3CCOC3)s2)c1 (stereo not drawn)	12	-20	-7	-1.9	6%
Cc1ccc([N+](=O)[O-])cc1NC(=O)/C=C/C(=O)O	/	/	-1	0.9	-7%
O=C1NC(=S)N/C1=C\c1ccc(Oc2ccc(C(F)(F)F)cc2[N+](=O)[O-])c(Cl)c1	/	/	-4	1.2	-2%
COc1ccc(C2C(C#N)=C(N)Oc3n[nH]c(C)c32)cc1CN1CCN(c2ccc(F)cc2)CC1 (stereo not drawn)	-5	-7	3	50*	-3%
S=c1[nH]nc(-c2ccc3ccccc3n2)n1-c1ccccc1	-2	-30	-9	-0.4	6%
Cc1ccccc1NC(=O)c1ccc([N+](=O)[O-])o1	-29	/	100	-21	-5%
Cc1ccc(C(=O)NNC(=O)Cc2csc(-c3csc(C)n3)n2)cc1	/	/	0	-0.5	-12%
Cc1ccc(C2=CC(c3ccccc3)n3ncnc3N2)cc1 (stereo not drawn)	/	/	67	-77	-1%
CO[C@H]1C=CO[C@@]2(C)Oc3c(C)c(O)c4c(O)c(c(C=NN5CCN(C6CCCC6)CC5)c(O)c4c3C2=O)NC(=O)C(C)=CC=C[C@H](C)[C@H](O)[C@@H](C)[C@@H](O)[C@@H](C)[C@H](OC(C)=O)[C@@H]1C	-13	/	/	6.1	?
CCOC(=O)c1c(NC(=O)C(=O)N/N=C/c2ccc(OCC)cc2)sc2c1CCCCC2	-5	-3	-5	1.5	2%
Cc1ccc(-c2nnn(CC(=O)Nc3ccc(S(=O)(=O)N4CCC(C)CC4)cc3)n2)cc1	-8	1	-16	/	-2%
COc1ccc(COCC(O)CN2CCOCC2)cc1OC (stereo not drawn)	-2	-21	-6	1.5	-4%
O=C(CSCCO)Nc1cccc(C(F)(F)F)c1	3	27	2	-1.7	-8%
O=C(C=C1CCN(c2ncc(C(F)(F)F)cc2Cl)CC1)NNC(=O)Nc1ccccc1	8	-32	11	2.9	-4%
CCOc1ccccc1NC(=O)CN1CCC(C(=O)c2ccc(F)cc2)CC1	/	/	74	0.6	/
Cc1cccc(C)c1OCc1cc(C(=O)NCC2CC2)no1	/	/	-7	1.1	/
Cn1nnnc1SCC(=O)Nc1ccc(N2CCOCC2)cc1	5	-7	-1	-1.1	-6%	Arbovirus anti repeat=1
C/C(CC(=O)Nc1ccccn1)=N\NC(=O)c1ccccc1	1	-13	0	11	0%
Cc1cccc(NC(=O)N2C3CCCC2CC(NC(=O)C2CC2)C3)c1 (stereo not drawn)	/	/	1	0.5	/
CCCCCCn1c(N2CCN(c3ccccc3)CC2)nc2c1c(=O)n(C)c(=O)n2C	-33	24	80	12	5%
CCn1nc(C)c(NC(=O)c2cnn3c(C(F)F)cc(-c4ccccc4)nc23)c1C	-11	/	16	/	-3%
CC(=O)N1CCc2cc(S(=O)(=O)Nc3cccc(C(F)(F)F)c3)ccc21	6	-10	-11	-2.2	6%
Cc1ccc(S(=O)(=O)N2CCCC2CO)cc1 (stereo not drawn)	-3	-8	12	/	-4%

Remaining list, next part
SMILES	Arbovirus anti	YopH PTP inh	Mtb bLac sens	RecA intein inh	Mtb growth	others
O=C(NN1C(=O)C2C3C=CC(O3)C2C1=O)c1cccc(Br)c1 (stereo not drawn)	2	/	4	-1.1	6%
CCCCN1C(=O)C2NN=C(C(=O)OC)C2C1=O (stereo not drawn)	4	-23	-1	2.3	-2%
Cc1ccc(SCCNC(=S)Nc2ccc(C)c(C)c2)cc1	-5	-11	7	13	4%
O=C(Cn1ncc2c(=O)oc3ccccc3c21)N1CCC(N2CCCCC2)CC1	-7	-29	2	-3.2	1%	Arbovirus anti repeat=2
COc1ccc(N2CC(C(=O)Nc3nccs3)CC2=O)cc1 (stereo not drawn)	4	6	0	-6.8	-8%
O=C(Nc1nc2ccccc2n1CCN1CCCCC1)C1CCCCC1	-10	-4	88	-2.1	4%
COc1ccc(-c2cc(C)no2)cc1S(=O)(=O)N1CC(=O)Nc2ccccc21	/	/	-3	2.1	/
CCOC(=O)c1ccc(NC(=O)Cn2nnc3ccccc32)cc1	5	-39	3	4.8	-1%
O=S(=O)(Nc1ccccc1)c1cccc2nonc12	/	/	6	-0.5	/
Cc1ccccc1NC(=O)CN1CCOCC1	/	/	5	-0.7	/
CC(C)(C(=O)O)c1ccc(C(O)CCCN2CCC(C(O)(c3ccccc3)c3ccccc3)CC2)cc1 (stereo not drawn)	/	/	-10	3.4	/
COc1ccc(C(NC(C)=O)c2c(O)ccc3ccccc23)cc1OC (stereo not drawn)	3	-27	-2	-7.6	-7%

Sorted by heavy-atom count (lowest first): some entries from above
SMILES	Arbovirus anti	YopH PTP inh	Mtb bLac sens	RecA intein inh	Mtb growth	others
CN(C)S(=O)(=O)N1CCc2ccccc2C1	-2	-21	-5	/	2%
Cc1ccc(S(=O)(=O)N2CCCC2CO)cc1 (stereo not drawn)	-3	-8	12	/	-4%
Cc1ccc(N2C(=O)C3CCCN3C2=S)cc1Cl (stereo not drawn)	/	/	1	-0.7	/
Cc1cc(C(=O)CSc2n[nH]c(N)n2)c(C)n1C1CC1	7	16	-22	1.9	-9%
CC(c1ccccc1)n1c(-c2ccc(Cl)cc2)n[nH]c1=S (stereo not drawn)	/	/	-5	5.2	/
COc1cccc(-c2nnc(N(C)C(=O)C3CCOC3)s2)c1 (stereo not drawn)	12	-20	-7	-1.9	6%
CC(COc1ccccc1)N1CCC(CO)(Cc2ccccc2)CC1 (stereo not drawn)	-15	/	2	0.4	1%
COc1ccc(C(NC(C)=O)c2c(O)ccc3ccccc23)cc1OC (stereo not drawn)	3	-27	-2	-7.6	-7%
CCOC(=O)CNC(=O)CSc1ncnc2c1nnn2-c1ccc(F)cc1	8	-48	99	2.4	>100µM*
COc1ccc(-c2cc(C)no2)cc1S(=O)(=O)N1CC(=O)Nc2ccccc21	/	/	-3	2.1	/
O=C1NC(=S)N/C1=C\c1ccc(Oc2ccc(C(F)(F)F)cc2[N+](=O)[O-])c(Cl)c1	/	/	-4	1.2	-2%
COc1ccc(NCc2nnc(SCC(=O)N3CCCc4ccccc43)n2C)cc1	-6	-29	-9	0.5	90%
CCN(CC)CCNC(=O)CN1C(=O)COc2ccc(S(=O)(=O)N3CCOCC3)cc21	/	/	-9	0.2	/
COC(=O)[C@@H]1C[C@H]2CC[C@H](O)C[C@H]2N1Cc1ccccc1OS(=O)(=O)c1ccc(C)cc1	/	/	-1	1.6	-5%
Nc1c(C(=O)NCc2ccccc2)c2nc3ccccc3nc2n1-c1ccc2c(c1)OCO2	-31	-36	-7	-7.8	-3%

Remaining list, next part:
SMILES	Arbovirus anti	YopH PTP inh	Mtb bLac sens	RecA intein inh	Mtb growth	others
CN(C(=O)COC(=O)CCC(=O)c1ccccc1)c1c(N)n(Cc2ccccc2)c(=O)[nH]c1=O	/	/	-10	-2.2	/
CC(OC(=O)c1ccc(Cl)c(S(=O)(=O)N2CCCC2)c1)C(=O)NC1CCCCC1C (stereo not drawn)	/	/	5	1.2	/
CC1CC(CC(=O)Nc2nc(-c3ccccc3)cs2)C(=O)O1 (stereo not drawn)	3	/	-5	-1.6	7%
COc1ccc(C2=NN(C(=O)CSc3nnc(C)n3C)C(c3ccco3)C2)cc1 (stereo not drawn)	5	/	-4	-0.4	-9%
CC(C)Cc1c(O)nc(SCC(=O)N2CCCCCC2)[nH]c1=O	/	/	12	1.4	/
COc1ccc(-c2[nH]ncc2Oc2ccccc2OC)c(O)c1	7	-54	5	-4.1	-1%
COc1ccc(/C(C)=N/NC(=O)c2ccccc2OCc2ccccc2)c(OC)c1	-8	/	6	-2.4	1%
COc1ccc(-n2cnc3cc(NCc4ccco4)ccc32)cc1	-5	-15	89	4.5	5%
CCCCCOc1ccc(C(=O)NC(C(=O)O)C(C)C)cc1 (stereo not drawn)	9	0	8	4.6	-4%
CCN(CCO)Cc1csc2ccccc12	4	-9	-2	-1.9	7%
O=C(O)Cc1csc(-c2cccc(Oc3ccccc3)c2)n1	/	/	2&2	6.0	-8%
c1ccc(CN2CCN(c3nc(NCc4ccco4)c4ccccc4n3)CC2)cc1	-38	-6	100	5.6	8µM*
O=C(CSc1nc2ccc(NC(=O)c3ccccc3C(=O)O)cc2s1)Nc1c(Cl)cccc1Cl	/	/	6	-0.5	/
COc1ccc(NC(=O)NCCCCc2ccccc2)cc1	/	/	4	-0.7	/

Assay outcomes deposited in PubChem by several laboratories.
